# PrP UTR inh: suppresses PrP 5' UTR mRNA reporter expression; 340,000 tested, 0.35% active; cell-based PrP 5' UTR mRNA reporter, plate reader; inhibition, % (concentration not given with the values);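 active = every replicate at 50% or more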;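 note: 0 = median of the neutral control wells; tested in H4 reporter cells; numbers are from one replicate; inactives centre near -14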
# BJeLR lethal: kills HRASV12-expressing BJeLR cells | BJeLR (HRASV12) viability, CellTiter-Glo ATP luminescence, 48 h; reference of the scale not given here | inhibition, % (concentration not given with the values) | 300,000 tested, 0.17% active | AID 1554;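 active = replicate mean above 50%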;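 note: 50 nL library stock added to about 25 µL; numbers are from one replicate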
# ugtP null kill: kills S. aureus RN4220 lacking UgtP; S. aureus RN4220 ugtP deletion, OD600 growth, 16 h; some inactives read as strong as hits; growth inhibition, % (no concentration beside the values); 330,000 tested, 0.54% active; AID 1259309;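 active = z-score under -3 and OD600 up to 0.15 on both plates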;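 note: plate controls were untreated wells for no effect and antibiotic for full effect; wells of about 80 µL received 100 nL stock; the first replicate is given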
# Bead autofluor: counter-screen for toxin protease inhibitors: compound fluorescence. compound autofluorescence counterscreen, microsphere flow cytometry; hits give high values. fluorescence intensity (concentration not given with the values). 360,000 tested, 3.1% active;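 active = at least 3 SD above the mean of all compounds, about 16000 in these data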;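 note: 100 nL of 1 mM stock went into each well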
# Mtb hypoxia rep: inhibitors of hypoxia-regulated fluorescent reporter in Mycobacterium tuberculosis; 300,000 tested, 0.1% active; fluorescence inhibition, % (test concentration not listed); M. tuberculosis hypoxia-regulated fluorescent reporter, fluorescence; AID 1159583;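 active = 35 to 45% if threefold the growth effect, above 45% if 1.5-fold the growth effect; inactive = the rest, general growth blockers included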;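 note: wells of about 50 µL received 100 nL stock; 0% = vehicle wells and 100% = reference inhibitor wells; whole bacteria with a GFP reporter of the hypoxia response; strong numbers were not always called active; many hits fall short of the cut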
# Sa RN4220 lethal: S. aureus RN4220 growth inhibition; AID 1259311; inhibition, % (no concentration beside the values); OD600, 16 h; 330,000 tested, 0.33% active;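 active = z-score of -3 or lower and OD600 up to 0.18 on both plates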;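 note: plate controls were untreated cells for no effect and reference antibiotic for full effect; stock transfer was 100 nL into about 80 µL; one replicate is shown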
# Mtb hypoxia rep growth: second read-out of Mtb hypoxia rep, no call of its own (marks repeat the call); growth inhibition, %; measured here: M. tuberculosis growth (absorbance);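 0% = vehicle and 100% = reference antibiotic; read after six days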
# Numbers without * were called inactive; / = not tested or not shown.
SMILES,PrP UTR inh,BJeLR lethal,ugtP null kill,Bead autofluor,Mtb hypoxia rep,Mtb hypoxia rep growth,Sa RN4220 lethal
CCOc1ccccc1N(CC(=O)N1CCCC1)S(C)(=O)=O,-29,-2,17,3304,10,9,2.1
C/C(=N\NC(=O)C(=O)Nc1c(C)n(C)n(-c2ccccc2)c1=O)c1ccc(Cl)s1,-15,-2,/,5647,/,/,/
O=C1c2cccc3cccc(c23)C(=O)N1OS(=O)(=O)c1ccccc1,-8,-5,4,2361,5,5,-3.7
COC(=O)c1cc(NC(=O)/C=C/c2ccc3c(c2)OCO3)cc(C(=O)OC)c1,-13,-5,-23,8708,1,1,-2.4
CCc1ccccc1N(CC(=O)NCC1CCCO1)C(=O)CCC(=O)Nc1nccs1 (stereo not drawn),-16,-12,7,4126,13,1,8.4
CCOC(=O)c1cc2c(s1)-c1c(C)cccc1OC2,-42,-9,22,4331,-5,8,13
CN1CCN(c2nc(-c3ccccc3)ncc2S(C)(=O)=O)CC1,-14,-3,13,4029,12,-1,3.9
COc1ccc(CN(CCC#N)CCC2(c3ccccc3)CC(C)N(C)CC2C)cc1OC (stereo not drawn),-8,1,/,3456,/,/,/
C=C(C)c1cccc(C(C)(C)NC(=O)N2CCN(c3ccccc3)CC2)c1,-9,-5,7,6227,-2,-6,1.8
COc1cccc(C(=O)/C=C/Nc2ccc(S(=O)(=O)Nc3cccc(C(C)=O)c3)cc2)c1,-32,6,-6,2812,/,/,3.0
CCOC(=O)C1CCCN(Cc2nc(N)nc(Nc3ccc(Cl)cc3)n2)C1 (stereo not drawn),-5,-5,2,4062,/,/,3.8
C/C(=N/NC(=O)CSc1nc2ccccc2n1C)c1ccncc1,-34,-8,/,4037,/,/,/
C=CCn1c(SCC(N)=O)nc2scc(-c3ccc(C)o3)c2c1=O,-53,-1,69,2049,12,12,-7.5
c1ccc(C2[C@H]3CN(CC4CCCCC4)[C@H](c4ccccc4)C34CC2(c2ccccc2)C4)cc1 (stereo partly drawn),-20,-4,/,4619,/,/,/
COc1cccc(NC(=O)COC(=O)C2CC(=O)N(c3ccc(C)cc3)C2)c1 (stereo not drawn),4,/,6,6695,4,1,5.1
COc1c(OC)c2[nH]c(=O)cc3c4ccccc4n(c1=O)c23,-28,6,-2,5770,/,/,3.4
O=S1(=O)CCOCC(c2ccccc2)N1Cc1ccccc1 (stereo not drawn),/,/,-4,/,8,9,4.1
Cc1nn2c(N)c(-c3ccccc3)cnc2c1-c1ccc(Cl)cc1,-42,9,0,4384,8,7,-7.2
COc1ccc(OCCCN(C)Cc2ccccc2)cc1,-14,1,1,4557,9,2,4.6
CSc1ccc(S(=O)(=O)NCc2ccc(C)cc2)cc1,-6,-1,-1,23510*,-4,12,5.2
O=C(O)c1nn(-c2ccccc2C(F)(F)F)cc1O,-27,-12,7,4199,15,11,2.8
CCOc1c2ccc(C(=O)NCC34CC5CC(CC(C5)C3)C4)cc2nn1CC,-4,6,-18,4001,6,11,-12
Cc1cc2nc(-c3ccc(NC(=O)C(C)C)cc3)oc2cc1C,-60,-5,9,2015,/,/,-6.6
COc1ccc(CNC(=O)[C@H](C)NC(=O)[C@@H]2Cc3ccccc3CN2)cc1,-30,4,1,5256,2,0,1.5
COC1=CC(=O)OC(c2ccc(OC)cc2)C1 (stereo not drawn),-21,/,6,3440,15,10,2.9
Cc1nc(CCNC(=O)CC2C(=O)NCCN2Cc2ccccc2)nc2c1CCC2 (stereo not drawn),0,-2,-1,4244,-1,5,1.3
O=C(Nc1cccc(C(F)(F)F)c1)c1cccnn1,-19,8,5,4092,4,-3,1.1
CC(C)CCNC(=O)C(=O)NCc1ccccc1,-19,-3,1,3743,0,5,4.3
Cc1ccc(-n2[nH]c(C)c(C=NCc3ccncc3)c2=O)cc1,-28,24,-7,4239,-9,1,-1.2
CCOC(=O)C1CCN(C(=O)C2CCCCC2)CC1,-16,-1,-5,3667,20,15,2.9
COC(=O)C1=C(c2ccc(-c3ccccc3)c(F)c2)CC2CCC1N2C(=O)NC1CC1 (stereo not drawn),/,/,-10,/,-13,0,0.2
CCN1C(=O)CC(C(=O)Nc2ccc(F)cc2)SC1=Nc1cccc(OC)c1 (stereo not drawn),-30,-16,3,6251,6,4,-0.2
COC(=O)c1cc(S(=O)(=O)NCC2CCN(Cc3ccc(F)cc3)CC2)c[nH]1,-24,5,12,5685,8,3,3.9
Cn1c(-c2ccccc2)c(C(=O)CC#N)c2ccccc21,-32,11,-7,4245,-6,-1,5.3
CN1CCN(c2cc(=O)n(C3CCCCC3)c(=O)[nH]2)CC1,-1,0,0,4651,10,9,-5.8
COc1ccc(N(C)C(=O)C2CCN(S(=O)(=O)c3cccc4nsnc34)CC2)cc1,-17,4,-5,5285,-11,2,-2.0
CCOc1ccc(NS(=O)(=O)c2ccc3[nH]c(=O)cc(C(=O)O)c3c2)cc1,-16,-4,7,2163,11,3,5.2
Nc1c(-c2ccccc2)c(CSc2nc3ccccc3[nH]2)nn1-c1ccc(Cl)cc1,-5,-32,8,2411,13,8,-8.0
Cc1ccc(S(=O)(=O)Oc2ccc(C=NNC(=O)c3cccnc3)cc2)cc1,/,/,19,/,16,-2,4.7
CC(=O)c1cccc(NC(=O)Nc2ccc3c(c2)N(C)C(=O)CS3)c1,-16,-2,6,6582,7,-1,4.8
Cc1ccc(SCc2cc(=O)n3[nH]cnc3n2)cc1,-33,2,6,3022,-9,13,6.3
CCCCC1COCCS(=O)(=O)N1Cc1cccc(Cl)c1 (stereo not drawn),/,/,9,/,4,2,8.3
COc1ccc(-c2noc(-c3cccs3)n2)cc1OC,-79,9,-7,5912,-3,-13,2.6
Cc1c(Cl)ccc2c(C(O)CBr)cc(-c3ccccc3)nc12 (stereo not drawn),8,/,96*,3115,20,8,41
COc1ccc(N2CCC(CNC(=O)Nc3ccccc3)C2)cc1 (stereo not drawn),-2,-11,3,19305*,8,8,1.1
CCOc1cc2c(cc1OCC)C(c1ccc(O)c(OC)c1)NCC2 (stereo not drawn),11,/,3,4299,10,8,4.8
COc1ccc2c(C)nc(Nc3nc(-c4ccccc4)cc(=O)[nH]3)nc2c1,18,58*,5,4216,-9,7,28
CCc1ccc(/C=C2/Sc3ccccc3N(CC(=O)NCC3CCCO3)C2=O)cc1 (stereo not drawn),-23,3,16,4687,12,7,3.7
O=C(CNC(=O)c1ccco1)NCC(=O)OCc1ccccc1Br,-9,7,20,3104,4,0,26
COc1ccc(CCN2C(=O)C(Oc3ccccc3C)C2c2ccc3c(c2)OCO3)cc1OC (stereo not drawn),1,8,-5,2794,4,6,0.5
Cc1cccc(C(=O)OCC(=O)NN2C(=O)NC3(CCC(C)CC3)C2=O)c1O (stereo not drawn),-16,-9,-4,5409,-2,-1,-2.3
O=C(CCN1C(=O)C2C3C=CC(C3)C2C1=O)Nc1nccs1 (stereo not drawn),-6,4,0,2764,/,/,3.3
CC(=O)Nc1ccc(NC(=O)CSc2nnc(NC(=O)C3CC(=O)N(c4ccccc4)C3)s2)cc1 (stereo not drawn),-1,7,0,5913,-11,-3,-1.7
Cn1c2c(c(=O)n(C)c1=O)C(c1ccc(Br)cc1)C(C#N)=C(N)N2 (stereo not drawn),-6,-2,-1,3521,0,2,1.8
O=C(/C=C/c1ccco1)N1CCN(S(=O)(=O)c2ccccc2)CC1,-12,/,4,3974,18,6,3.1
CCC1Oc2ccc(C)cc2N(CC(=O)NCCN2CCCCCC2)C1=O (stereo not drawn),-26,1,4,12220,8,2,2.4
COc1ccc(N2CCN(c3nc4ccccc4n3CC(=O)c3ccccc3)CC2)cc1,-22,-3,8,6207,15,8,-1.9
CCC(=O)N1CCN(c2ccc(NC(=O)c3cccs3)cc2)CC1,-12,4,0,17020*,10,9,7.4
CCN1C(=O)Cc2cc(S(=O)(=O)N3CCOCC3)ccc21,-9,-2,1,4447,/,/,3.2
Cc1ccc(OCC(=O)NNC(=S)NC(=O)c2cccs2)c(C)c1,-2,-2,21,5498,-3,15,55

# Sorted by length of the SMILES (low to high): some entries from above.
SMILES,PrP UTR inh,BJeLR lethal,ugtP null kill,Bead autofluor,Mtb hypoxia rep,Mtb hypoxia rep growth,Sa RN4220 lethal
CCOC(=O)C1CCN(C(=O)C2CCCCC2)CC1,-16,-1,-5,3667,20,15,2.9
COc1ccc(-c2noc(-c3cccs3)n2)cc1OC,-79,9,-7,5912,-3,-13,2.6
CCOC(=O)c1cc2c(s1)-c1c(C)cccc1OC2,-42,-9,22,4331,-5,8,13
COc1ccc(N2CCC(CNC(=O)Nc3ccccc3)C2)cc1 (stereo not drawn),-2,-11,3,19305*,8,8,1.1
Cc1ccc(-n2[nH]c(C)c(C=NCc3ccncc3)c2=O)cc1,-28,24,-7,4239,-9,1,-1.2
Cc1ccc(S(=O)(=O)Oc2ccc(C=NNC(=O)c3cccnc3)cc2)cc1,/,/,19,/,16,-2,4.7
COc1ccc(CN(CCC#N)CCC2(c3ccccc3)CC(C)N(C)CC2C)cc1OC (stereo not drawn),-8,1,/,3456,/,/,/

# Next part.
SMILES,PrP UTR inh,BJeLR lethal,ugtP null kill,Bead autofluor,Mtb hypoxia rep,Mtb hypoxia rep growth,Sa RN4220 lethal
COC(=O)/C=c1/s/c(=C(/C#N)C(=O)N2CCCCC2)n(-c2ccccc2)c1=O,-19,0,/,2828,/,/,/
O=C(Cc1ccccc1)Nc1ncccn1,-16,0,1,4215,5,9,5.7
COCCn1c(SCC(=O)Nc2cccnc2Cl)nc2cc(Cl)ccc2c1=O,-3,/,9,6148,0,-1,4.9
Cc1ccc2cc(CNC(C)(C)C)c(=O)[nH]c2c1,-16,3,-6,3160,0,4,-10
CN(C)/C=C(\C#N)C(=O)N/N=C/c1ccccc1,-33,-2,/,2480,/,/,/
CCOC(=O)c1cnn(-c2ccccc2)c1-c1ccncc1,-18,-5,8,3174,0,-2,3.5
O=C(Nc1ccc(N2CCN(C(=O)c3ccc(Cl)cc3)CC2)cc1)c1ccc2c(c1)OCCO2,3,/,4,8329,0,9,5.7
O=C(Nc1ccc(S(=O)(=O)Nc2ncccn2)cc1)c1ccc2ncsc2c1,-12,15,13,4983,24,21,3.5
Cc1ccccc1-n1c(C)nnc1SCC(=O)N(C)C1CCS(=O)(=O)C1 (stereo not drawn),-23,-9,-2,4085,-9,-6,-2.6
CCc1ccc(NC(=O)CC2C(=O)N(c3ccc(C)cc3)C(=O)N2CCc2ccncc2)cc1 (stereo not drawn),-29,7,-8,2175,8,2,2.4
O=C(CCc1ccc(O)cc1)c1c(O)cc(O)cc1O[C@@H]1O[C@H](CO)[C@@H](O)[C@H](O)[C@H]1O,1,-6,/,4468,/,/,/
O=C(NC(=S)NNS(=O)(=O)c1ccccc1)c1ccc([N+](=O)[O-])cc1,-23,1,21,2095,1,-1,5.0
Cc1ccc(C(=O)N2CCCC(N3CCN(c4ccccc4F)CC3)C2)s1 (stereo not drawn),7,2,11,6758,0,-3,2.4
CCC(=O)c1ccccc1OCCSc1nc(C)cc(=O)[nH]1,-16,-8,-1,15811,-3,0,0.3
Cc1cc(C)cc(OC(=O)N2CCOCC2)c1,-11,13,6,2382,/,/,-0.6
Cc1cccc(-c2cccc(NC(=O)C3CCCN(C(=O)c4ocnc4C)C3)c2)c1 (stereo not drawn),-32,9,-7,6554,-4,2,-6.6
COc1ccc(NC(=O)N(Cc2cc3ccc(OC)cc3[nH]c2=O)CC2CCCO2)cc1 (stereo not drawn),-6,4,1,3309,-2,-4,-0.9
CCOc1ccccc1NC(=O)C(Sc1ccccc1)c1ccccc1 (stereo not drawn),-2,-1,69,2427,/,/,4.6
N#C/C(C(=O)Oc1ccccc1)=C1/Nc2ccccc2-c2ccccc21,-13,2,-9,4640,3,2,3.1
Cc1ccc(/C=C2/SC(=S)N(CCCC(=O)Nc3ccc(O)cc3)C2=O)cc1,31,3,-14,4182,2,-1,1.0
COc1ccc(NC(=O)c2c[nH]c(=O)n(-c3ccc(C)c(C)c3)c2=O)cc1OC,-1,7,10,5847,6,0,0.3
C/C(=N\NC(=O)CCn1nnc2ccccc21)c1cccs1,-41,13,/,3721,/,/,/

# Compound activity (PubChem BioAssay)
